fixLJ activator: activators of Burkholderia fixLJ two-component system, primary screen, B. multivorans, GFP reporter | B. multivorans fixK-promoter GFP reporter, 18 h; hits give high values | z-score (concentration not given with the values) | 29,000 tested, 0.3% active;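 active = replicate mean overnight rise in green fluorescent reporter signal, 3 or more SD over negative controls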;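 also: score is relative to vehicle wells of the plate; 300 nL library stock went into each well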
An asterisk follows results filed as active.

SMILES	fixLJ activator
O=C(NCc1nc(-c2ccncc2)n[nH]1)C(O)c1ccccc1F (stereo not drawn)	0.56
COc1ccc(C(c2c(C)n(C)n(-c3ccccc3)c2=O)c2c(C)n(C)n(-c3ccccc3)c2=O)cc1O	-1
CC(C)(C)c1ccc(OCC(=O)Nc2ccc(Cl)cc2C(=O)c2ccccc2)cc1	0.27
Cc1cc(CC2CN(Cc3ccccc3Cl)CC2O)n[nH]1 (stereo not drawn)	0.38
Cc1ccc(-c2c3c(=O)n(C)c(=O)n(C)c3c3c(C)nc4ccccc4n23)cc1	-1.29
COc1ccc(CN2CCN(C(=O)C(C)C)C3CS(=O)(=O)CC32)cc1 (stereo not drawn)	-0.68
CCc1ccccc1NC(=O)CC1Sc2ccc(C(F)(F)F)cc2NC1=O (stereo not drawn)	-0.1
COc1ccc(CNC(=O)CCc2nc(-c3ccc(C)cc3)no2)c(OC)c1	-0.94
O=C(COc1cccnc1)N1CCOC(c2ccc(Cl)c(Cl)c2)C1 (stereo not drawn)	-0.24
Cc1cc(C)cc(-n2c(SCC(=O)Nc3ccccc3F)nc3c(oc4ccccc43)c2=O)c1	-0.67
Cc1[nH]ccc1C(=O)N1CCC2(CCC(=O)N(CC3CC3)C2)CC1	-0.06
Cc1nonc1CC(=O)NCCOc1cccc(C(=O)O)c1	1.1
CCN(c1ccccc1)S(=O)(=O)c1c(C)nc2scc(C)n2c1=O	-0.27
Cn1nnnc1SCCNCc1ccc(OCc2ccccc2Cl)cc1	-0.32
O=C(Nc1ccc2oc(-c3ccc4ccccc4c3)nc2c1)c1cc(Cl)ccc1Cl	-1.26
Cc1cccc(C(=O)N2CC3CCC(C2)N(Cc2c(C)noc2C)C3=O)c1 (stereo not drawn)	-1.72
CCOc1ccc(C(=O)Oc2c(Sc3ccccc3)c(C)nn2C(C)(C)C)cc1OCC	0.12
CC(=O)NC(C)c1nc2ccccc2n1Cc1ccccc1Cl (stereo not drawn)	0.05
Cc1ccc2c(c1)c(=O)c(S(=O)(=O)c1ccc(C)c(C)c1)cn2CC(=O)Nc1ccccc1	-2.14
Cc1ccccc1NC(=O)c1sc2nc3c(cc2c1N)CN(Cc1ccccc1)CC3	0.8
Cc1c(C(=O)OCc2ccccc2)[nH]c2c1C(=O)CC(c1ccc(N(C)C)cc1)C2 (stereo not drawn)	0.23
Cc1cc(C)c2c(CC(=O)Nc3cc(C(F)(F)F)ccc3Cl)coc2c1	-1.56
CCOC(=O)c1oc2c(c1C)-c1nn(Cc3c(F)cccc3Cl)cc1CC2	0.07
CCOCCC(=O)N1CCC(c2nnc(Cn3cccn3)n2C)CC1	-1.81
Cc1ccc2[nH]c(CCC(=O)N(Cc3nccs3)C3CC3)nc2c1C	-0.04

A few values from above.
Cc1c(C(=O)OCc2ccccc2)[nH]c2c1C(=O)CC(c1ccc(N(C)C)cc1)C2 (stereo not drawn) @ fixLJ activator = 0.23
COc1ccc(CN2CCN(C(=O)C(C)C)C3CS(=O)(=O)CC32)cc1 (stereo not drawn) @ fixLJ activator = -0.68

The listing continues:
SMILES	fixLJ activator
CCCNC(=O)c1ccc2c(c1)N=C(CCC)c1ccccc1S2	-0.22
O=S(=O)(c1ccccc1)n1nc(-c2ccc(Cl)cc2)nc1NCc1ccc(F)cc1	-0.09
O=C(Nc1cccnc1Cl)c1cc(-c2ccc(Cl)cc2)on1	-0.54
CCOc1ccc(CCNC(=O)c2ccc(-c3nc(COc4ccc(C)cc4)c(C)o3)cc2)cc1	-0.51
CCc1ccccc1C(=O)N1CCCN(Cc2noc(C)n2)CC1	0.64
Cc1ccc(CNc2nc3ccccc3n3cnnc23)cc1	-1.79
CC(C)c1ccccc1NC(=O)CN(c1ccccc1)S(=O)(=O)N(C)C	-0.75
CCCC(CC)NC(=O)N1CCN(C(=O)c2ccc[nH]2)CC1 (stereo not drawn)	1.02
COCC(=O)N1CCC2(CC1)OCCc1cc(C(=O)NC3(C)CCC3)sc12	-0.59
Cc1ccc(CN(C(=O)COc2ccc(Cl)cc2Cl)C2CCS(=O)(=O)C2)o1 (stereo not drawn)	-0.83
CCN(CC)CCNC(=O)c1cn(CC)c2ccc(S(=O)(=O)N3CCc4ccccc4C3)cc2c1=O	-1.23
CCC(=O)N1CCc2cc(S(=O)(=O)NC(C(=O)NCCc3ccc(OC)c(OC)c3)C(C)C)ccc21 (stereo not drawn)	0.55
Cc1ccsc1CN(C(=O)COc1ccc(Cl)cc1)C1CCS(=O)(=O)C1 (stereo not drawn)	-0.08
COc1cccc(NC(CNS(=O)(=O)c2ccc(Cl)cc2)c2ccccc2)c1 (stereo not drawn)	4.19*
CC1CCc2c(sc3nnn(Cc4ccc(F)cc4)c(=O)c23)C1 (stereo not drawn)	-0.71
CCn1c(SCC(=O)c2ccc([N+](=O)[O-])cc2)nnc1-c1ccc(Cl)cc1	-1.18
O=C(CSc1nc2cc3ccccc3cc2[nH]1)Nc1ccc(F)cc1	0.06
COc1ccccc1Nc1nc2ccc(Cl)cc2nc1-n1nc(C)cc1C	3.21*
COc1ccc(C(=O)O)cc1Nc1nc2ccc(C)cc2n2cnnc12	-0.49
CCOc1cc(C2c3c(oc4ccccc4c3=O)C(=O)N2Cc2ccc3c(c2)OCO3)ccc1O (stereo not drawn)	-3.56
COC(=O)c1cc2sccc2n1CC(=O)Nc1cc(Cl)ccc1OC	1.05
Cc1cc(-c2cc(S(=O)(=O)N(CCN(C)C)CC(=O)O)c(C)s2)n[nH]1	-3.26
O=C1CCCN1Cc1ccccc1CNC(=O)N1CCC(c2ccn[nH]2)CC1	-0.98
CC1CCN(C(=O)c2cc(-c3ccc(Cl)cc3)on2)CC1	-1.3
COc1cccc(NC(=O)Cn2c(=O)n(-c3ccc(CC(=O)NCC4CCCO4)cc3)c(=O)c3ccccc32)c1 (stereo not drawn)	-1.06
More compounds.
SMILES	fixLJ activator
COc1ccc(NC(=O)CCNS(=O)(=O)c2cccc3nsnc23)cc1OC	1.09
CCOC(=O)c1c(NC(=O)C(C)Sc2cn(CCNC(=O)c3ccc(OC)cc3)c3ccccc23)sc2c1CCC2 (stereo not drawn)	-0.15
CCOC(=O)c1ccc(N2C(=O)c3[nH]nc(-c4ccc(OC)cc4)c3C2c2ccccc2Cl)cc1 (stereo not drawn)	-0.47
C=CCc1ccccc1OCC(O)CNC(C)C (stereo not drawn)	0.49
Cc1nn(C)cc1CN(C)C(=O)c1cc(-c2ccccc2)nc2ccc(Br)cc12	0.25
COc1ccc2oc(=O)c(C(=O)N3CCN(c4ccc(C)cc4)CC3)cc2c1	-0.51
CCN(CC)Cc1cnc2c(C(=O)N3CCC(C(N)=O)CC3)cnn2c1	-1.75
COc1ccccc1NC(=O)c1c(NC(=O)COc2ccccc2)sc2c1CCCCC2	-0.28
COCCN1CCC(C(=O)N2CCC3OCc4cnnn4C3C2)CC1 (stereo not drawn)	-0.3
Cc1ccccc1NC(=O)Cn1c(=O)n(Cc2ccccc2)c(=O)c2c(C)c(C)sc21	0.99
Cc1ccccc1C(=O)Nc1cccc(OCc2cc(=O)n3c4c(sc3n2)CCCC4)c1	1
CCn1c(=O)c2sccc2n2c(CCC(=O)Nc3ccc(F)cc3)nnc12	-0.45
CC(=O)c1cccc(NC(=O)C(Cc2ccccc2)NS(=O)(=O)c2ccc(Br)s2)c1 (stereo not drawn)	1.96
CCCN(CCC)C(=O)Cn1c(=O)n(-c2cccc(C)c2)c(=O)c2c1c1cc(OC)ccc1n2C	-0.05
COc1cc2ccccc2cc1C(=O)Nc1cc(-c2nc3ccccc3o2)ccc1C	1.2
Cc1cccc(Cc2cnc(NC(=O)C3Cc4ccc(C)cc4C(=O)O3)s2)c1 (stereo not drawn)	-2.35
C[C@H](N)[C@H](O)c1cccc(O)c1	-1.48
COc1cccc(CNC(=O)C2CCCN(c3nnc(-n4c(C)ccc4C)s3)C2)c1 (stereo not drawn)	0.3
COc1cccc(C(=O)Nc2ccc(-c3cc(C(F)(F)F)nn3-c3ccccc3)cc2)c1	-0.48
COc1ccc(NC(=O)c2sc3nc4c(cc3c2N)CN(Cc2ccccc2)CC4)cc1	-1.49
C=CCOc1ccc(-c2nnn(CC(=O)N3CCCn4cncc4C3)n2)cc1	0.74
COc1ccc(-n2c(=O)c3ccc(C(=O)NCc4ccc(C)cc4)cc3n(Cc3ccc(Cl)cc3)c2=O)cc1	0.04
O=P(O)(O)C(Cl)(Cl)P(=O)(O)O	-1.09
COc1ccc(NC(=O)C2CCCN(S(=O)(=O)c3c(C)[nH]c(=O)[nH]c3=O)C2)cc1Cl (stereo not drawn)	-0.14
O=C(NCc1ccc(Cl)cc1)c1cc2ccccc2o1	-0.85
(further entries)
SMILES	fixLJ activator
COc1ccc(NC(=O)Cn2c(=O)n(Cc3ccco3)c(=O)c3sc4ccccc4c32)cc1OC	0.22
Cc1c(CC(=O)NCc2ccc(F)cc2)c(=O)oc2cc(O)c(Cl)cc12	-1.25
CCc1ccc(CNC(=O)c2ccc3nc(SCc4ccc(F)cc4)n(C)c3c2)cc1	2.14
Cc1ccccc1OCC(=O)Nc1ccc(-c2nc3ncccc3o2)cc1	0.14
Cc1ccc(NC(=O)Cn2c(=O)n(Cc3ccc4c(c3)OCO4)c(=O)c3ccccc32)c(C)c1	-1.39
CC(CO)NC(=O)CCc1nc2cc(S(=O)(=O)N3CCCC3)ccc2n1C (stereo not drawn)	-1.25
Cc1ccc(NC(=O)Cn2ncc3c4ccccc4n(Cc4ccccc4)c3c2=O)cc1Cl	-1
COc1cc(Cl)c(NC(=O)CCc2nc3cccnc3n2-c2ccccc2)c(OC)c1	-1.79
O=C1c2oc3ccccc3c(=O)c2C(c2cccc(Cl)c2)N1c1ccccn1 (stereo not drawn)	-2.32
O=C1CCc2c1cccc2C(=O)N1CCC(N2CCN(CCO)CC2)CC1	0.17
Cc1cccc(-c2nnn3c2nc(NCc2ccc4c(c2)OCO4)c2ccccc23)c1	-1.15
O=S(=O)(c1ccc(OC(F)(F)F)cc1)N1CCC(c2nc3ccccc3s2)CC1	-1.82
CCOC(=O)N1CCc2c(sc3c2c(=O)n(-c2ccc(Cl)cc2)c(=O)n3CC(C)C)C1	0.22
Cc1ccccc1-n1nc(CO)c(C(=O)NCCc2ccccc2)n1	-2.02
Fc1ccccc1N1CCN(c2ncnc3onc(-c4ccc(Cl)cc4)c23)CC1	1.67
C[C@]12CCC3c4ccc(O)cc4CCC3C1CC[C@@H]2O (stereo partly drawn)	-2
Cc1ccc2oc(=O)c3cc(C(=O)Nc4ccc(F)cc4F)sc3c2c1	-0.61
CCc1ccc(NC(=O)Cn2c(C(=O)OC)cc3oc(C)cc32)cc1	0.44
COc1ccc(N2CCN(Cc3nc4c(c(=O)[nH]c(=O)n4C)n3Cc3ccc(C)cc3)CC2)cc1	0.42
COc1cc2nc(NCc3ccccc3Cl)n3nc(-c4cccnc4)nc3c2cc1OC	0.72
CC(=O)c1ccc(OCC(=O)N2CCN(C)C3(CCN(C)CC3)C2)cc1	-1.77
O=C(CSc1nc2ccncc2[nH]1)Nc1ccccc1C(F)(F)F	-1.07
COC(=O)c1ccc(NC(=O)CCCC(=O)OCC(=O)c2ccc(Cl)cc2)cc1	0.76
CCc1ccc(CNC(=O)COc2cc(=O)n(CC)c3ccccc23)cc1	-0.1
COc1cccc(C2C(C(=O)Nc3ccccc3)=C(C)Nc3nc(-c4ccccc4)nn32)c1OC (stereo not drawn)	-0.07

Reformatted field by field: part of the list above
Fc1ccccc1N1CCN(c2ncnc3onc(-c4ccc(Cl)cc4)c23)CC1
  fixLJ activator: 1.67
C[C@]12CCC3c4ccc(O)cc4CCC3C1CC[C@@H]2O (stereo partly drawn)
  fixLJ activator: -2
Cc1ccc2oc(=O)c3cc(C(=O)Nc4ccc(F)cc4F)sc3c2c1
  fixLJ activator: -0.61
CCc1ccc(NC(=O)Cn2c(C(=O)OC)cc3oc(C)cc32)cc1
  fixLJ activator: 0.44

A draw from above in order of number of heavy atoms, lowest first.
SMILES	fixLJ activator
C[C@]12CCC3c4ccc(O)cc4CCC3C1CC[C@@H]2O (stereo partly drawn)	-2
CCc1ccc(NC(=O)Cn2c(C(=O)OC)cc3oc(C)cc32)cc1	0.44
COc1cc(Cl)c(NC(=O)CCc2nc3cccnc3n2-c2ccccc2)c(OC)c1	-1.79

The list goes on:
SMILES	fixLJ activator
Cc1cc(C)n(-c2nc3cc(Cl)ccc3nc2Nc2ccc(C)c(F)c2)n1	-1.77
CC1=C(C(=O)OC2CCCCCC2)C(c2ccccc2Cl)CC(=O)N1 (stereo not drawn)	-0.14
Cc1cccc(N(CC(O)Cn2c3ccccc3c3ccccc32)S(=O)(=O)c2ccc(F)cc2)c1 (stereo not drawn)	-0.01
Cc1cc2c(SCC(=O)NC3COCC3Cc3ccncc3)ncnc2s1 (stereo not drawn)	0.53
CCc1ccc(S(=O)(=O)NC(c2ccc(OC)nc2)C2CC(O)C2)cc1 (stereo not drawn)	0.1
CCCc1cc(C(=O)NCc2ccc(-c3ncon3)cc2)n[nH]1	-2.16
Cc1nn(C(=O)COc2ccccc2)c(C)c1Sc1ccccc1	1.37
Cc1cc(C)cc(NS(=O)(=O)c2ccc3[nH]cc(C(=O)N4CCCC4)c(=O)c3c2)c1	-0.08
CCS(=O)(=O)c1c(Nc2cc(C)ccc2C)sc(C(=O)c2ccccc2)c1N	0.74
CCOC(=O)c1cnc2ccc(C(=O)OC)cc2c1Nc1ccccc1CC	-1.05
CCCCCCNC(=O)CCc1c(C)nc2nc(-c3cc(OC)cc(OC)c3)nn2c1C	-0.69
CCCCN1CCc2[nH]cnc2C12CCN(Cc1nccn1CC)CC2	-3.76
CCOC(=O)/C(C#N)=C/c1ccc(-c2ccc(Br)cc2)o1	2.48
Nc1ccn([C@@H]2O[C@H](CO)[C@@H](O)C2(F)F)c(=O)n1	0.24
CCOCCCNC(=O)Nc1ccc(-n2ccnc2)c(Cl)c1	-1.09

Two records drawn at random from those above, as already listed:
SMILES	fixLJ activator
CC1=C(C(=O)OC2CCCCCC2)C(c2ccccc2Cl)CC(=O)N1 (stereo not drawn)	-0.14
CCOC(=O)c1cnc2ccc(C(=O)OC)cc2c1Nc1ccccc1CC	-1.05

Only part of the results is shown; count on the stated rates, not on these rows.
